# Env fusion inh: HIV envelope-mediated fusion inhibition; 1.1% of 360,000 active; HeLa-JRFL Env/CEM21 cell fusion, luciferase; AID 651610; inhibition, % at 12.3 µM;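 active = mean replicate inhibition score of at least 50 and every replicate individually at or above 50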;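 also: 0% = plate neutral controls and 100% = maraviroc near 300 nM; one replicate is shown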
# PABP polyA inh: PABP-poly(A) binding inhibition; PABP-poly(A) RNA binding, fluorescence polarization; inhibition, % at 35 µM; 1% of 290,000 active;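 active = 50% or more with normal probe brightness, or confirmed in later tests; about a fifth of its hits are not listed in these tables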;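 also: calls also rest on retests at 20 µM and on dose response follow-up; controls were probe without protein and protein plus probe with vehicle; some compounds called inactive have numbers as strong as hits; many hits fall short of the cut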
# Target sequence (P11940 whole entry, looked up): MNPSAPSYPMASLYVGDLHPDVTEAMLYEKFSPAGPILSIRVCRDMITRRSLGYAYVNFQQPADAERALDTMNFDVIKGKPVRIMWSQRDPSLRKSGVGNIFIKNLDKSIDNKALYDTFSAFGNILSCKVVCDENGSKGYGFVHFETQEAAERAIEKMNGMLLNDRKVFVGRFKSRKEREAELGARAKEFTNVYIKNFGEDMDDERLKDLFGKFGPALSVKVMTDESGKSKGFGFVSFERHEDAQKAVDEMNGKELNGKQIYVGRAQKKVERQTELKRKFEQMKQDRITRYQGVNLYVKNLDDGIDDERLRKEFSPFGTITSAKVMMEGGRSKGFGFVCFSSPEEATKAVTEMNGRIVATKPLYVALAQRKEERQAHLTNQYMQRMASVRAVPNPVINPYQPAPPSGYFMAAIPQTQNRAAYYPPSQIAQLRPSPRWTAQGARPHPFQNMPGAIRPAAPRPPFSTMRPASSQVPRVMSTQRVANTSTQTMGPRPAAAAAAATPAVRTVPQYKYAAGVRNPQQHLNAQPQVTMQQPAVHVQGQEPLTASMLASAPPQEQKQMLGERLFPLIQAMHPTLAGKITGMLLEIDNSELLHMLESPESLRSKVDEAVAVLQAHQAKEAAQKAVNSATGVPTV
# MT1-MMP act inh: MT1-MMP (human) activation inhibition; P50281; HT1080 RFP-PRO-GFP cells, GFP/RFP ratio fluorescence, overnight; percent of plate control window, DMSO zero; GFP/RFP ratio change, % at 20 µM; 0.061% of 360,000 active;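 active = GFP/RFP ratio change of at least 30% with cell ATP level not reduced by more than half and red fluorescence within 50% of control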; also: strong numbers were not always called active
#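 Test system: HT1080 RFP-PRO-GFP cells; Benchmarks: DMSO and RFP-L50D-GFP cell wells; Timing: cells overnight before dosing, compound overnight, 37 °C, 5% CO2; Compound: one 20 µM compound dose with 1% DMSO; Read-out: GFP/RFP fluorescence ratio.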
# Yeast UUG start: modulators of start codon recognition fidelity in yeast; activity score, % at 18.7 µM; S. cerevisiae UUG-firefly luciferase reporter, luminescence/redox ratio; 0.13% of 350,000 active; AID 602363;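 active = replicate mean at a twofold rise or more, about +100% in these data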;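 also: firefly luciferase made from a UUG start codon reports start codon fidelity; reporter light over untreated wells divided by growth signal over untreated wells; some hits fall short of that in this replicate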
# CSC inhib: blocks cancer stem cells; cancer stem cell-like cells viability, luminescence; inhibition, % at 7.5 µM; 1.1% of 300,000 active; AID 2717;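 active = mean at 75% or more and at least half the replicates too; tested in HMLE shEcad cells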;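 also: 0% = median of negative and 100% = median of positive control wells; the first replicate is given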
# Rce1 inhib: yeast Ras-converting enzyme inhibition | calls only | 0.27% of 290,000 active | Q03530 | yeast membranes, quenched prenylated peptide cleavage fluorescence | AID 2563;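 active = fall in fluorescence gain of 50% or more versus controls, with final raw signal at or below 3038400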;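 also: plate controls were neutral control wells for no effect and wells lacking membranes for full effect; tested at 10 µM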
# Target sequence (Q03530 whole entry, looked up): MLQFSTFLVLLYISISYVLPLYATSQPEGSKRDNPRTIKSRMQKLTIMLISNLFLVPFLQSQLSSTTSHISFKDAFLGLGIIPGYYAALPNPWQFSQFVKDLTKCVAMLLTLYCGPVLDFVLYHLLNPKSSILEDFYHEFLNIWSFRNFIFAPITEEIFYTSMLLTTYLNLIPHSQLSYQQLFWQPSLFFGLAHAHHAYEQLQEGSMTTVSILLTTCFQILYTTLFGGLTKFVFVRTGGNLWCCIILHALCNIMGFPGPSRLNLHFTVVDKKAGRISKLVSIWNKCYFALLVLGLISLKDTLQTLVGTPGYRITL
# eIF4H FP inh: inhibitors of RNA binding by human eIF4H; Q15056; eIF4H fluorescence polarization binding assay; inhibition, % at 35 µM; 0.94% of 290,000 active; AID 2012;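 active = 50% or more with normal probe brightness, or confirmed in later tests; about a fifth of its hits are not listed in these tables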;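 also: calls also rest on retests at 20 µM and on dose response follow-up; 0% = protein and probe with vehicle and 100% = probe without protein; strong numbers were not always called active; many hits fall short of the cut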
# MT1-MMP act inh RFP: further read-out of MT1-MMP act inh, marked with its call; RFP signal change, %; measured here: RFP expression control read;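 0 = vehicle wells; hits needed this value within 50% of zero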
# Starred values were filed as active, the others as inactive; i = inactive; nt = not tested or not shown.
SMILES,Env fusion inh,PABP polyA inh,MT1-MMP act inh,MT1-MMP act inh RFP,Yeast UUG start,CSC inhib,Rce1 inhib,eIF4H FP inh
Cc1c([N+](=O)[O-])cc(C(=O)NCc2ccc(F)cc2)cc1[N+](=O)[O-],18,13,-5,2,nt,7,i,-9
Cc1ccc(OCc2cc(C(=O)N(C)Cc3cc(C4CC4)n[nH]3)no2)cc1C,-5,6,0,0,-22,1,i,-6
CCCNC(=O)C1(C)CCN(Cc2ccc(OCc3ccccc3)cc2)C1 (stereo not given),0,nt,5,-9,-12,nt,nt,nt
CCN(CC(=O)NC(C)C)C(=O)Cc1ccc(C)c(C)c1,0,-4,-2,0,nt,-3,i,1
COc1ccc(-n2nc(C(=O)NCC(=O)NCC3CCCO3)c3ccccc3c2=O)c(OC)c1 (stereo not given),-47,-1,0,7,-5,-8,i,1
COc1ccc(-c2nnc(SCc3ccc(C(=O)O)cc3)o2)cc1OC,-36,4,-1,3,-8,-2,i,-8
C=C(C)C1CC=C(C)/C(=N/NC(=O)c2ccoc2C)C1 (stereo not given),6,10,0,0,-9,-11,i,-5
CSc1ccc(NC(=O)NCCN2CCc3ccccc3C2)cc1,5,-2,6,-2,-15,7,i,-11
O=C1c2ccccc2C(=O)c2c1cccc2N1CCN(Cc2ccccc2)CC1,nt,18,6,-6,-4,42,i,15
Cc1cc(C)n2nc(SCC(=O)c3cc(C)n(-c4cc(C)on4)c3C)nc2n1,45,19,-6,-17,-3,-8,i,4

# The final two entries of the part before come first, to join the parts.
SMILES,Env fusion inh,PABP polyA inh,MT1-MMP act inh,MT1-MMP act inh RFP,Yeast UUG start,CSC inhib,Rce1 inhib,eIF4H FP inh
O=C1c2ccccc2C(=O)c2c1cccc2N1CCN(Cc2ccccc2)CC1,nt,18,6,-6,-4,42,i,15
Cc1cc(C)n2nc(SCC(=O)c3cc(C)n(-c4cc(C)on4)c3C)nc2n1,45,19,-6,-17,-3,-8,i,4
CSc1ccc(NC(=O)C2(C)CCN2C(=O)Cc2ccc(C(C)(C)C)cc2)cc1 (stereo not given),44,nt,-5,-25,-11,nt,nt,nt
COc1cc(NC(=O)c2ccccc2F)c(OC)cc1NC(=O)CN1CCOCC1,-9,14,0,2,8,-14,i,-3
O=C(c1cc(COc2ccc(F)cc2F)on1)N1CCN(C(=O)c2ccco2)CC1,16,6,1,-4,5,2,i,18
CCCOc1ccc(C(=O)Nc2ccc(S(=O)(=O)N3C[C@@H]4C[C@@H](C3)c3cccc(=O)n3C4)cc2)cc1,nt,nt,-7,-6,-4,11,nt,nt
CC1(C(=O)NS(=O)(=O)c2cccc(C#N)c2)CCN1C(=O)Cc1ccc(-c2ccccc2)cc1 (stereo not given),-24,nt,-3,3,-17,nt,nt,nt
O/N=C1\CCC\C1=C/c1ccco1,nt,11,-14,1,-4,nt,nt,38
Cc1nc(-c2ccc([N+](=O)[O-])cc2)c(-c2ccccc2)o1,6,1,0,1,-18,-12,i,-3
Cc1ccc(OCCn2ccnc2)c([N+](=O)[O-])c1,-10,5,-4,-1,-8,-20,i,-5
CCn1cc(Br)c(C(=O)NN)n1,nt,-9,0,0,-22,-6,i,-2
COc1ccccc1N1CCN(CCNC(=O)Nc2cccc(C)c2C)CC1,9,-3,5,-4,-13,17,i,8
COc1ccc(C(=O)N2CCCC(N3CCN(c4ccccc4OC)CC3)C2)c(OC)n1 (stereo not given),3,-5,4,7,-4,1,i,2
COc1ccc(S(=O)(=O)Nc2ccc(NC(C)=O)cc2)cc1,nt,8,5,4,-2,-5,i,-8
O=C(CCc1nc2ccccc2c(=O)[nH]1)N1CCN(S(=O)(=O)c2ccc(F)cc2)CC1,-10,nt,-2,5,-15,-6,nt,nt
CCOc1ccccc1OCC(=O)Nc1cccc(S(=O)(=O)N2CCCCCC2)c1,11,nt,5,-2,-7,3,i,nt
O=C(c1ccco1)N1CCN(C(c2cccs2)c2sc3ncnn3c2O)CC1 (stereo not given),17,-4,-1,5,-5,-4,i,-4
O=C(Cc1ccc(Cl)cc1Cl)OCC(=O)N1CCN(C(=O)c2ccco2)CC1,10,11,4,3,nt,-19,nt,-4
O=c1cc(-c2c(F)c(F)c(F)c(F)c2F)oc2c(F)c(F)c(F)c(F)c12,nt,-8,nt,nt,nt,101*,i,-2
COc1ccc(C(=O)c2no[n+]([O-])c2C(=O)c2ccc(OC)cc2)cc1,nt,-1,2,0,nt,-40,i,-5
COCCN(C(=O)c1csnn1)C(C(=O)NC(C)(C)C)c1cccc(OC)c1 (stereo not given),24,4,-5,-1,3,-3,i,-4
COc1cccc(CNC(=O)COc2cccc3c2OC(C)(C)C3)c1,5,nt,3,-2,3,-3,i,nt

# Some of the entries so far, as labelled records.
smiles: COc1ccc(C(=O)c2no[n+]([O-])c2C(=O)c2ccc(OC)cc2)cc1
  Env fusion inh: nt	PABP polyA inh: -1	MT1-MMP act inh: 2	MT1-MMP act inh RFP: 0	Yeast UUG start: nt	CSC inhib: -40	Rce1 inhib: i	eIF4H FP inh: -5
smiles: COCCN(C(=O)c1csnn1)C(C(=O)NC(C)(C)C)c1cccc(OC)c1 (stereo not given)
  Env fusion inh: 24	PABP polyA inh: 4	MT1-MMP act inh: -5	MT1-MMP act inh RFP: -1	Yeast UUG start: 3	CSC inhib: -3	Rce1 inhib: i	eIF4H FP inh: -4
smiles: COc1cccc(CNC(=O)COc2cccc3c2OC(C)(C)C3)c1
  Env fusion inh: 5	PABP polyA inh: nt	MT1-MMP act inh: 3	MT1-MMP act inh RFP: -2	Yeast UUG start: 3	CSC inhib: -3	Rce1 inhib: i	eIF4H FP inh: nt

# Later entries:
SMILES,Env fusion inh,PABP polyA inh,MT1-MMP act inh,MT1-MMP act inh RFP,Yeast UUG start,CSC inhib,Rce1 inhib,eIF4H FP inh
CC(=O)Nc1cc(-c2cccc(C)c2)cn2c(-c3ccc(S(C)(=O)=O)cc3)cnc12,16,nt,-12,8,11,nt,nt,nt
COc1cc(OC)c(-n2cc(-c3ccc(OC)c(OC)c3)[nH]c2=S)cc1Cl,-9,-1,-1,-2,-26,-7,i,1
O=C(NCCOc1ccccc1)C1CCN(C(=O)Nc2ccccc2)CC1,-2,nt,1,4,-8,nt,nt,nt
O=C(C1CCCN(S(=O)(=O)c2cccc3nonc23)C1)N1CCN(c2ccccc2Cl)CC1 (stereo not given),26,-7,16,0,-15,-5,i,7
Cc1csc(NC(=O)CN2C(=O)C3CC=CCC3C2=O)n1 (stereo not given),nt,3,4,2,1,-3,i,2
CN(C)CCOC1c2ccccc2CSc2ccccc21 (stereo not given),3,nt,-4,-1,-1,-14,i,nt
O=C(COC(=O)C1COc2ccccc2O1)Nc1cccc(S(=O)(=O)N2CCCCC2)c1 (stereo not given),1,28,0,4,nt,-7,i,-10
CCC(=O)Nc1cccc(NC(=O)c2cccc([N+](=O)[O-])c2C)c1,3,-3,0,1,nt,-8,i,-14
CCc1cccc(NC(=O)CN(C)S(=O)(=O)c2cccs2)c1,19,-2,-2,1,nt,-9,i,-11
COc1ccc(-c2nnc(SCC(=O)c3ccc[nH]3)o2)cc1,-87,21,-7,-2,-15,-10,i,-1
OC1C2(Cc3ccccc3)CN3CCN(C2)CC1(Cc1ccccc1)C3 (stereo not given),nt,-2,5,2,6,1,i,-4
Cc1noc(C)c1COc1ccccc1C(=O)NNC(=O)c1ccccc1,-20,nt,2,1,8,-14,i,nt
O=C1C=C(c2ccc(C(=O)O)c(Cl)c2)C[C@@H](c2ccc3c(c2)OCO3)C1,-15,nt,0,6,26,-12,nt,nt
O=[N+]([O-])c1ccc(O)c(C(C#Cc2ccccc2)N2CCOCC2)c1 (stereo not given),89*,5,-1,-15,nt,62,i,-1
COC(=O)Cn1c2[n+](c3ccccc31)CC(O)CS2 (stereo not given),nt,14,3,5,-15,1,i,3
CCN(CC)CCCNC(=O)C1CCCN(c2nnc(N3CCCC3=O)s2)C1 (stereo not given),-371,0,1,-1,-18,-18,i,5
COc1ccc(-c2sc3ccc(-c4ccc5c(c4)OCO5)cc3c2-c2ccc(OC)nc2)cc1,19,nt,3,-1,-6,26,nt,nt
COC(=O)Cn1c(=NC(=O)c2cccc(OC)c2)sc2cc(OC)ccc21,-5,-1,-1,-9,nt,-20,i,-14
COc1ccccc1NC(=O)CN1CCCCCC1,-7,-4,-1,-2,-17,-7,nt,-4
COc1ccc(C[C@H]2CN3C(=NC[C@@H]3Cc3ccccc3)N2CCNC(=O)CCC2CCCCC2)cc1,-41,11,-2,-5,9,128*,i,-9
COc1ccc(C)cc1NC(=O)CN1CCN(CC(=O)Nc2ccccc2F)CC1,nt,-6,-1,-16,8,17,i,-4
CCOC(=O)CNS(=O)(=O)Cc1ccccc1,3,nt,1,4,-13,-5,nt,nt
COc1ccc(S(=O)(=O)N2CCCCCC2)cc1C(=O)NCCc1ccccc1,0,nt,0,-2,-35,nt,nt,nt
Cc1oc2ccc(OCc3cccc(Cl)c3)cc2c1C(=O)O,12,-1,2,4,nt,10,i,-9
O=c1[nH]c2cc3c(cc2cc1CN(Cc1nnnn1C1CCCC1)C1CCCC1)OCCO3,-7,21,-3,5,-14,2,i,18
COc1ccc(-c2csc(Nc3ncccn3)n2)cc1C,-19,-7,0,0,-7,-6,i,3
COc1ccc(C2CC(c3ccccc3)=NN2C(=O)COC(=O)c2cccc(N)c2)cc1 (stereo not given),-1,nt,0,-2,-17,-4,nt,nt
COc1ccccc1N1CCN(CC(=O)NCCc2ccc(S(N)(=O)=O)cc2)CC1,-7,33,0,-1,nt,-6,i,-4
CC1=C(C(=O)Nc2cccnc2)C(c2ccccn2)n2nnnc2N1 (stereo not given),-151,-2,4,14,-5,-3,i,12
N#Cc1nc(-c2cccs2)oc1NCc1ccc2c(c1)OCO2,nt,-2,-1,1,-10,22,i,-14
CCOc1ccc(S(=O)(=O)N(C)c2ccc(OCC(=O)Nc3ccccc3F)cc2)cc1,-22,nt,4,-9,-22,nt,nt,nt
Cc1occc1-c1nnc(SCC(=O)N(C)C)o1,-15,-2,-2,4,-6,nt,i,-2
CCOC(=O)C1(CCOc2ccccc2)CCN(Cc2ccncc2)CC1,20,4,-7,-9,nt,23,i,3
N#Cc1nc(Cc2cccc3ccccc23)oc1NCc1ccc(F)cc1,nt,-4,4,-4,nt,-10,i,-9
CCN(CC)CC(=O)Nc1sc2c(c1C(=O)c1ccccc1OC)CCC2,8,-4,-7,-4,nt,nt,i,5
COc1ccc(Cc2nnc(NC(=O)c3ccc(F)cc3)s2)cc1OC,-65,-3,5,-3,6,1,i,2
Cc1cccc(Sc2ccc([N+](=O)[O-])cn2)c1,-8,1,-2,0,nt,18,i,-3
CCCNC(=O)C1(C)CCCN(Cc2ccc(Oc3ccccc3)cc2)C1 (stereo not given),26,nt,-4,-5,-2,nt,nt,nt
Cc1ccc(NC(=O)Cn2nnc(C(=O)NCc3cccs3)c2N)c(C)c1,-4,-9,4,3,-21,-13,i,-4
Cc1ccc(C)c(Cn2nnc3c(=O)[nH]c(C4CCN(S(=O)(=O)c5ccc(S(=O)(=O)NC6CC6)cc5)CC4)nc32)c1,12,7,-2,-8,-3,23,i,0
CSc1nnc(CCNS(=O)(=O)c2ccccc2Br)n1C,-5,2,0,4,-18,8,i,-1
COc1ccc(Cl)cc1N1C(=O)CC(N2CCN(S(=O)(=O)c3ccccc3F)CC2)C1=O (stereo not given),1,nt,1,-2,9,7,nt,nt
Cc1cc(Cl)c(OCCOCCN2CCCC(C)C2)c(Br)c1 (stereo not given),-2,-3,-4,0,-5,nt,i,-3
O=C(CSc1nc(-c2ccco2)cc(C(F)(F)F)n1)N1CCN(c2ccc(Cl)cc2)CC1,nt,11,-4,0,-12,-15,i,-4
CC1CCN(CCCNC(=O)C2CCN(S(=O)(=O)N3CCCCC3)CC2)CC1,-23,-10,-6,-1,-14,-5,i,-3
CCn1c(=O)c(C(=O)NNS(=O)(=O)c2ccc(NC(=O)OC)cc2)c(O)c2ccccc21,-7,6,3,8,-13,-1,i,3
CC(C)N1CCN(Cc2cccn2-c2nccs2)CC1CCO (stereo not given),12,2,-6,-2,-3,-5,i,-6
N/C(=N\OC(=O)c1cccc(Cl)c1)c1ccccn1,-23,-8,5,5,nt,-1,i,-6

# Compound activity deposited in PubChem BioAssay by several laboratories.
